Source: PubChem BioAssay (National Center for Advancing Translational Sciences (NCATS))
TRPV1 potentiator: HTS Assay for Compounds that Act as Potentiators of the Vanilloid Receptor 1; Transient receptor potential cation channel subfamily V member 1 (Homo sapiens), Q8NER1; TRPV1-expressing cells, Fluo-8 calcium influx, capsaicin EC20 potentiation; host cell line not named in the record; control for the full effect not named in the record; potentiation, % at 8.33 µM; hit rate 0.02% among 320,000; AID 540277, 2011; active means potentiation above 80%; inconclusive means 30% to 80%; inactive means below 30%; further: 0% is about no effect
Target sequence (Q8NER1 whole entry, looked up): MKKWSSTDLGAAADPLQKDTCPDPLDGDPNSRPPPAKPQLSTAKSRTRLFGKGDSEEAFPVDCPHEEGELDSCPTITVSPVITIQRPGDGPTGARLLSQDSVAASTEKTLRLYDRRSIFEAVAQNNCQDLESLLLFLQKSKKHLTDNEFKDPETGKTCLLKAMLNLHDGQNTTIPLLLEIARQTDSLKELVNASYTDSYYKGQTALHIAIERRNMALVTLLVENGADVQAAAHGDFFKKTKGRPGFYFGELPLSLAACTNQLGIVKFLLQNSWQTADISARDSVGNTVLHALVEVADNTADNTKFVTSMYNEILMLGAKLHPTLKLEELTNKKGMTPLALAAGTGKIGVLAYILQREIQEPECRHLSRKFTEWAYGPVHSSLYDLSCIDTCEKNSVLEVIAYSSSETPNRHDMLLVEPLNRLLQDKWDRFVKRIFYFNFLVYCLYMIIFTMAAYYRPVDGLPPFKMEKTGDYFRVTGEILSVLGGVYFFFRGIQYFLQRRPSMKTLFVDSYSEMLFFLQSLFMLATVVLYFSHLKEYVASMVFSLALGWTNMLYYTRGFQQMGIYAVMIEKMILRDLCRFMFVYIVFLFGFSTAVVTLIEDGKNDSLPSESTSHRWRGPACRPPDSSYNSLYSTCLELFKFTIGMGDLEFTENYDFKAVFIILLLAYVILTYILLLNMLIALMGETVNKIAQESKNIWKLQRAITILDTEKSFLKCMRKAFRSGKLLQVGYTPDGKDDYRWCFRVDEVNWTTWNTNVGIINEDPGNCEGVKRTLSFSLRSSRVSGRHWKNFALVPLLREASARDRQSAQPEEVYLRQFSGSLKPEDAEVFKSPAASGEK
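Cells expressing TRPV1 were dye-loaded with Fluo-8 and read kinetically: 10 s baseline, 3 min after compound (agonist portion), then 2 min after EC20 capsaicin (allosteric enhancer portion). Calcium-bound dye fluorescence at 480/520 nm.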
ClpP mod: qHTS Assay for Activators of ClpP | ATP-dependent Clp protease proteolytic subunit (Bacillus subtilis (strain 168)), P80244 | purified B. subtilis ClpP, FRET peptide cleavage, 20 min | Potency, µM (doses to about 57.5 µM), for the others: at the highest dose activity change, negative = active | hit rate 1.9% among 340,000 | AID 651965, 2013; active = well fitted falling curve with a large enough effect; inconclusive = small, poorly fitted or top-dose-only effect; inactive = no such curve, though single readings can be large or run the other way; further: potency means the concentration at half of the fitted maximal effect; the source files actives as falling curves though it sought activators and does not explain the sign; nearly all actives have a fitted effect of over 65% in size; many hits overshoot -100%
Target sequence (P80244 whole entry, looked up): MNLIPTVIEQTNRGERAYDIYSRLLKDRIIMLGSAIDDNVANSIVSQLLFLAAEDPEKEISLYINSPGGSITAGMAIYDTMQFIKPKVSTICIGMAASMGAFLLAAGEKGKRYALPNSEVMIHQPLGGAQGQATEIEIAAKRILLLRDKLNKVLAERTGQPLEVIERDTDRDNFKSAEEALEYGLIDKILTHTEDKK
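Buffer: 100 mM Tris/HCl pH8, 100 mM KCl, 0.05% low protease BSA, 2.5% glycerol, 0.01% Tween-20. ClpP 10 microg/mL final; 20 min RT; delta FRET normalized to ADEP and DMSO controls.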
PINK1 expr mod: A Quantitative High throughput Screen to Identify Chemical Modulators of PINK1 Expression; PINK1 immunofluorescence, high-content cytometry, 24 h; Potency, µM (titrated, usually from 76.6 µM), without a hit: at the highest dose activation (PINK1 increase), hits mostly activators; hit rate 0.2% among 410,000; active = well fitted activation curve with a large enough effect; inconclusive = small, poorly fitted or top-dose-only effect; inactive = flat fitted curve, though single readings scatter; cell line not stated here;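 further: potency means the concentration at half of the fitted maximal effect; % of control where 0% means no effect; nearly all actives have a fitted effect of over 65% in size; a mitochondrial uncoupler was the plate control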
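Stable cell line, 250 cells/well, 12 h attachment; compounds pinned at 5 concentrations, 24 h; CCCP control. Fixed with nuclear dye, primary antibodies 12 h at 10 degrees C, secondary plus cell stain; laser-scanning cytometer read.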
TRPML1 inh: qHTS for Inhibitors of the Human Mucolipin Transient Receptor Potential 1 (TRPML1) | activity change, negative = inhibition, % (test concentration not listed) | TRPML1-inducible cells, Ca2+ dye fluorescence, FDSS; stronger effect = lower value; inhibition of EC80 agonist-evoked calcium signal | hit rate 0.02% among 390,000 | Mucolipin-1 (Homo sapiens), Q9GZU1; in the data active means activity change below about -50%; inconclusive means about -30% to -50%; inactive means above about -30%;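 further: stimulus is agonist 54-4 at its EC80 concentration; on the % scale 0 is the no-effect control and ±100 the full control effect; compound concentration not given in the record; the text of the record puts the active cut at -80%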
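TRPML1-DL cells, Tet-induced overnight (~16 h, 37 °C) at 1,500 cells/well, were loaded with Ca8 no-wash dye plus quencher for 45-90 min at room temperature. Compounds were pinned during FDSS kinetic reading; agonist 54-4 at EC80 (4 uM final) then added.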
Menin-MLL FL inh: qHTS Assay for Inhibitors Targeting the Menin-MLL Interaction in MLL Related Leukemias: Competition With Fluorescein Labeled MLL-derived Peptide. Fluorescence polarization, fluorescein-MLL peptide displacement from menin. FP activity change, % at 61.4 µM. 290,000 tested, under 10 active; inconclusive = falling polarisation curve, or a change in total fluorescence; inactive = total fluorescence flat and polarisation flat or rising; no compound was filed as active; the % refers to the polarisation; negative = inhibition;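 further: % of control where 0% means no effect; inhibitors lower the polarisation; unlabelled MLL peptide was the positive control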
Sfp inh: qHTS Assay for Inhibitors of Bacillus subtilis Sfp phosphopantetheinyl transferase (PPTase) | 4'-phosphopantetheinyl transferase ffp (Bacillus subtilis), Q9F4F7 | Biochemical Sfp PPTase activity, qHTS | Potency, µM, without a hit: max response, negative = inhibition, most hits filed as inhibitors | hit rate 3.5% among 310,000 | AID 1490, 2009; active means well fitted inhibition curve with a large enough effect; inconclusive means small, poorly fitted or top-dose-only effect, or another doubt; inactive means no such curve, though single readings can be large or run the other way;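 further: the enzyme is Sfp with the accession as filed and its product quenches rhodamine fluorescence; potency means the concentration at half of the fitted maximal effect; 0% = enzyme reaction without inhibitor and -100% = no enzyme wells; top concentration of the series not given in the record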
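Step 1, compound plus 15 nM Sfp-PPTase, 15 min, room temperature. Step 2, add rhodamine-CoA (5 uM) and BHQ-2-YbbR (12.5 uM). Step 3, read 525/598 nm fluorescence at 0 and 30 min.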
TRPML1 agonist: qHTS for Agonists of the Human Mucolipin Transient Receptor Potential 1 (TRPML1). hit rate 0.12% among 410,000. activation, % (concentration not given with the values). TRPML1-expressing cells, Ca2+ dye fluorescence, FDSS; host cell line not named in the record; reference of the full effect not given here; in the data active = activation above about 50%; inconclusive = about 30% to 50%; inactive = below about 30%; further: 0% is about no effect; the text of the record puts the active cut at 80%
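In this qHTS format, compounds were pin-transferred onto Ca8-dye-loaded TRPML1-DL cells induced with Tet overnight, and intracellular Ca2+ fluorescence was recorded kinetically for 110 s after a 10 s baseline. A subsequent 4uM final 54-4 (EC80) addition followed by a second 110 s read served as the antagonist phase.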
An asterisk follows results filed as active; ? = inconclusive; · = not tested or not shown; & = joins results of further samples; [ ] = another dose, or the depositor's remark. Outcome played no part in choosing rows (roughly 4.4% active in at least one column).

SMILES	TRPV1 potentiator	ClpP mod	PINK1 expr mod	TRPML1 inh	Menin-MLL FL inh	Sfp inh	TRPML1 agonist
O=C(NNC(=O)c1ccc(F)cc1F)c1ccc(-n2cnnn2)cc1	0	-3.9%	4.9%	-4	·	12%	-0.5
CCN1CCCC1CNCc1ccccc1OCc1ccc(F)cc1 (configuration not stated)	0	0.5%	·	1	1.9	-1%	-0.7
Cc1cccc(NC(=O)CSc2nnc(Cc3ccccc3)o2)c1	-10	·	-0.5%	-11	2.2	8%	1.6
Cc1occc1C(=O)N/N=C/C(Br)=C/c1ccccc1	-18	·	1.8%	-8	-3.8	-10%	-0.7
CCCCC(=O)Nc1c2c(nn1-c1ccc([N+](=O)[O-])cc1)CS(=O)(=O)C2	0	-1.0%	-0.2%	·	-1.4	7%	·
Cc1ccc(NC(=O)COC(=O)C2CCN(c3ccc(C(F)(F)F)cn3)CC2)cc1	-10	-14%	0.8%	6	·	·	1.1
CC(=O)c1c(C)[nH]c(C2=NNC(=NC(C)(C)C)SC2)c1C	0	·	2.2%	2	-0.2	22µM*	-0.7
COc1cc(C(=O)NC(=S)N(CCc2ccccc2)CCc2ccccc2)cc(OC)c1OC	10	1.1%	?	1	3.5	9%	1.4
CN1N=C2c3ccccc3CCC2C1c1ccc(C(F)(F)F)cc1 (configuration not stated)	3	-0.2%	0.8%	21	3.7	14%	4.3
Cc1cccc(Cn2c(SCC(=O)Nc3ccccc3)nc3c2c(=O)[nH]c(=O)n3C)c1	13	-2.8%	4.8%	11	7.8	-1%	0.4
CCOc1cc(C=O)c(Br)cc1OC1CCCC1	-33	-3.2%	4.9%	3	3.8	3%	1.9
Cc1cccnc1NC(=O)C1COc2ccccc2O1 (configuration not stated)	3	-2.7%	0.9%	0	43[activator]	7%	1.8
Cc1ccccc1OCC(=O)OCC(=O)c1cc(C)n(C2CC2)c1C	15	1.1%	0.8%	16	·	·	1.9
O=C(c1ccco1)N1CCN(c2nc3ccccc3c(=O)n2-c2ccccc2)CC1	-19	-7.2%	-1.8%	2	1.4	-9%	0.3
O=C(OCCN1C(=O)c2ccccc2C1=O)c1ccc(S(=O)(=O)N2CCCCCC2)cc1	3	-3.4%	-0.5%	3	4.7	7%	1.4
CCOc1ccc(S(=O)(=O)Nc2cc(Cl)ccc2OC)c2cccnc12	·	-2.1%	3.2%	52	·	·	0.6
COc1ccc(Cl)cc1NC(=O)C1CCN(S(=O)(=O)c2ccc3c(c2)CCCN3C(=O)C2CCC2)CC1	·	1.3%	-1.0%	6	·	·	-0.6
CCN(CC)C1CCCCC1NS(=O)(=O)c1ccc(Cl)cc1 (configuration not stated)	20	0.2%	0.5%	-2	2.8	-1%	-0.5
O=C(NC1CCN(Cc2ccccc2)CC1)c1cccc(S(=O)(=O)Nc2cc(C(F)(F)F)ccc2Cl)c1	3	-4.3%	4.7%	5	·	27%	0.2
O=C(COCc1cc(-c2ccco2)on1)Nc1ccc(OC(F)(F)F)cc1	·	1.0%	2.6%	19	·	·	2.5
COc1cc(C(=O)NNC(=O)C2CCCC2)cc(OC)c1OC	-10	·	-1.5%	11	1.1	1%	-0.7
CCOc1ccc(-c2[nH]ncc2Oc2ccccc2OC)c(O)c1	-4	-2.4%	4.4%	-11	0.1	10%	0.9
CCOC(=O)C1C(C)=C(Nc2ccc(OC)cc2)C(=O)N1c1ccc(OC)cc1 (configuration not stated)	3	-12%	-1.3%	28	-1.7	5%	-0.2
CC(O)c1nc2ccccc2n1CC(=O)Nc1ccc(F)cc1Cl (configuration not stated)	-1	1.0%	3.8%	1	-3.8	8%	-0.5
C/C(CC(=O)Nc1ccc2c(c1)OCCO2)=N\NC(=O)c1ccccc1Cl	20	·	0.3%	-15	-3.7	5%	0.8
Additional structures.
SMILES	TRPV1 potentiator	ClpP mod	PINK1 expr mod	TRPML1 inh	Menin-MLL FL inh	Sfp inh	TRPML1 agonist
O=C(O)CC(NNC(=O)c1ccccc1)C(=O)Nc1ccc([N+](=O)[O-])cc1 (configuration not stated)	-27	-2.5%	-1.8%	-19	2.6	-4%	0.7
CCc1ccccc1N(C)C(=O)Cn1cnc2sc(C)c(S(=O)(=O)N3CCN(c4ncccn4)CC3)c2c1=O	·	-5.8%	0.7%	-9	·	·	-0.6
CCCCN1CC(=O)N2[C@H]3c4ccccc4OC[C@@H]3[C@H](C(=O)OCC)[C@]2(C)C1=O	·	-1.1%	-1.1%	-16	·	·	-0.7
COCCNC(=O)C1(C)C=CC2(CCCCC2)N1C(=O)c1ccccc1 (configuration not stated)	4	-0.1%	-1.9%	-5	3.3&-4.9	20%&19%	1.2
Cc1cc(OCC(=O)C(C)(C)C)c2c(C)c(C)c(=O)oc2c1	-10	?	13%	48	-3.7	10%	1.1
Cn1c(=O)c2c(nc(SCC(=O)NC3CCCC3)n2C)n(C)c1=O	2	·	2.6%	31	0.2	-29%	0.0
COc1ccc([C@H]2CC(=O)C=C(c3cccc4c3sc3ccccc34)C2)cc1OC	9	-0.8%	-0.3%	-2	·	·	0.3
Cc1cccc(C2c3[nH]c4ccccc4c3CCN2C(=O)c2cc(CC(C)C)[nH]c(=O)n2)n1 (configuration not stated)	4	-3.2%	0.3%	33	-4.8	-7%	3.9
O=S1(=O)C=C(N2CCOCC2)c2ccccc21	-2	-3.1%	-2.7%	16	?	1%	-0.6
CCN(C(=O)Cc1c(C(=O)O)n(C)c2ccccc12)c1cc(OC)ccc1OC	12	-0.6%	3.1%	-11	4.0	20%	0.5
O=C(Nc1cccc(Cl)c1)Nc1nnc(-c2ccccc2)o1	8	?	-0.4%	-2	0.4	17%	0.0
O=C(Cn1cc(S(=O)(=O)N2CCCC2)c(S(=O)(=O)N2CCCC2)c1)Nc1ccc(F)cc1	·	0.9%	-0.5%	7	·	·	-0.8
COc1cc(CN2CCN(c3cccc(C)c3C)CC2)cc(Br)c1O	6	-0.2%	-3.0%	0	6.8	-27%	2.1
CC(C)CCCC(C)C1CCC2C3CC[C@H]4CC(=O)CC[C@@]4(C)C3CC[C@@]12C (some centres not stated)	·	·	-1.5%	·	2.7	8%	·
COC(=O)NC1CSCC1OC(=O)CCN1C(=O)c2ccccc2C1=O (configuration not stated)	2	-0.3%	-1.6%	0	1.9	22%	-1.0
CCC(=O)Nc1c(C(=O)N2CCN(c3ccc(F)cc3)CC2)oc2ccccc12	·	-2.6%	-0.4%	9	·	·	2.1
O=c1cc(N2CCc3ccccc32)[nH]c(=O)n1-c1ccccc1Cl	-43	·	0.8%	3	-0.4	2%	-0.1
COC(=O)CSc1ncnc2c1sc1nc(N3CCOCC3)c3c(c12)CCCC3	12	?	0.5%	3	4.7	6%	0.5
O=C(Nc1cccc(Cl)c1)c1cc(S(=O)(=O)N2CCOCC2)cs1	-6	1.4%	10%	1	·	14%	0.2
CC(=O)Nc1c2c(nn1-c1cccc(C)c1)CSC2	2	1.3%	1.6%	-3	-0.4	15%	0.8
O=C(NCc1ccc(F)cc1)c1cc(-c2cccs2)on1	-1	2.6%	3.2%[38.3 µM]	24	2.9	45µM*	2.1
CCN(CC(=O)Nc1ccccc1C(F)(F)F)C(=O)Cc1ccc2c(c1)CCC2	0	1.9%	1.9%	1	·	·	-0.2
CCCCCC1CCC(c2nnc(SCC(C)=O)o2)CC1 (configuration not stated)	-3	-0.1%	0.4%	-25	0.2	8%	0.4
COCOCCn1cc(CN2CCS(=O)(=O)N(Cc3ccc(-c4cccc(CO)c4)cc3)C(C(C)C)C2=O)nn1 (configuration not stated)	·	3.8%	1.4%	48	·	·	-0.1
C=CCN(c1ccccc1C(=O)O)S(=O)(=O)c1ccc(C)cc1	9	·	-0.1%	7	3.2	-19%	0.3
Next section.
SMILES	TRPV1 potentiator	ClpP mod	PINK1 expr mod	TRPML1 inh	Menin-MLL FL inh	Sfp inh	TRPML1 agonist
CCOc1ccc(-n2ccnc2SCC(=O)NCc2ccc3c(c2)OCO3)cc1	-32	-7.4%	-3.0%	-22	4.4	14%	2.6
CCCN1C(=O)C(Cc2nc3ccccc3c(=O)n2C)c2ccccc21 (configuration not stated)	?	0.8%	-0.3%	13	4.6	-2%	-0.5
Nc1nc2c(s1)CC(c1ccccc1)CC2 (configuration not stated)	2	-0.6%	-1.6%	24	1.0	2%	2.2
COC(=O)c1ccc(NC(=O)CSc2cn(CC(=O)N3CCCCC3)c3ccccc23)cc1	·	0.3%	3.6%	6	·	·	0.8
CCCn1c2ccccc2c2cnn(CC(=O)NCCCN3CCN(c4ccccc4)CC3)c(=O)c21	-1	3.2%	-1.6%	5	-2.8	-13%	0.5
CCn1cc(CNC(=O)CSc2nc(-c3ccc(OC)c(OC)c3)cc(C(F)(F)F)n2)c(C)n1	-21	-2.7%	-0.8%	-16	5.7	11%	-0.1
C=CCn1c(SCC(=O)Nc2cc(C)ccc2OC)nnc1-c1ccco1	23	0.7%	-0.4%	35	1.9	18%	-0.8
CCOC(=O)c1cc(-c2ccc(F)cc2)n(CCC(=O)Nc2nc3ccc(OC)cc3s2)c1C	·	-8.5%	3.3%	8	·	·	1.9
CC(C)Oc1cccc(C(=O)N2CCCC2)c1	10	·	1.2%	-11	9.2	9%	-0.8
NS(=O)(=O)c1ccc(Sc2ccccn2)c([N+](=O)[O-])c1	-5	·	1.2%	3	3.3	16%	0.8
